RmlC RmlD mix: inhibitors of RmlC and RmlD coupled enzymes; inhibition, % at 5.5 µM; 110,000 tested, 0.39% active; AID 1532; RmlC/RmlD coupled enzyme inhibition, 384-well mixture HTS; in the data active = inhibition above about 30%, passing the limit was not always enough; only retested compounds are shown here; note: strong numbers were not always called active
RmlC RmlD mix retest: recorded beside RmlC RmlD mix, whose call it bears; inhibition, %; measured here: mean retest inhibition;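 single compounds in two wells; values far above 100% likely come from compound fluorescence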
* = called active by the depositor; i = inactive; . = not tested or not shown; + = active, no number.

SMILES	RmlC RmlD mix	RmlC RmlD mix retest
COc1ccc(C(c2nnnn2C(C)(C)C)N2CCN(c3nc4ccccc4s3)CC2)cc1 (stereo not given)	50.8	2.0
O=C(NCc1ccccn1)c1cc(-n2cnnc2)ccc1Cl	130.1	-10.4
O=C(O)CCN1C(=O)/C(=C\c2ccc(-c3nc4ccccc4s3)o2)SC1=S	37.1	24.9
CCCCSc1nc2ccc(Nc3nc(N4CCOCC4)nc(N4CCOCC4)n3)cc2s1	79.0	-5.2
COc1ccc(-c2cc(-c3cccs3)c(C#N)c(SCC(=O)NCc3ccccc3OC)n2)cc1	48.3	32.2
CC(C)CCN1CC(C(=O)NCCC2=CCCCC2)CC1=O (stereo not given)	36.6	-18.1
CC(=O)c1cccc(-n2nnnc2SCC(=O)Nc2ccccc2N2CCCCC2)c1	165.6	4.0
COc1ccc(NC(=O)NC2CCN(C(C)C)CC2)c(OC)c1	39.2	2.4
O=C(CN1C(=O)NC2(CCCC2)C1=O)Nc1nc(-c2ccc(F)cc2)cs1	30.3	-4.1
Cc1sc2ncnc(NCc3ccccc3)c2c1C	45.1	-4.6
CCC(=O)Nc1ccccc1C(=O)N1CCOCC1	99.2	-3.0
COc1cc(NS(=O)(=O)N2CCCC2)cc(OC)c1OC	34.5	-5.4
CCOC(=O)CCc1c(C)c2ccc(OCc3nn[nH]n3)cc2oc1=O	55.7	23.2
COc1ccc(N2CCN(C(=O)CCc3nc(-c4ccc(C)cc4)no3)CC2)cc1	39.1	-2.3
O=C(Nc1ccc2c(c1)OCO2)C1COc2ccccc2O1 (stereo not given)	89.8	-8.7
CCOc1ccc(OCc2ccc(C(=O)Nc3cccnc3)o2)cc1	47.4	-1.1
O=C(CN1CCN(c2nc(-c3ccccc3)cs2)CC1)NNC(=O)c1ccc(Br)cc1	187.0	-3.6
O=C(CN1CCC(n2nnc3cc(F)ccc32)CC1)NC1CC1	70.0	-10.0
Cc1ccc(CSc2nc3c(c(=O)[nH]2)C(c2ccncc2)C2=C(CCCC2=O)N3)cc1 (stereo not given)	48.8	10.7
Cc1c(C(=O)N2CCc3ccccc32)oc2c1C(=O)CC(C)(C)C2	48.8	6.6
CCOCCCNC(=O)CCSc1ccc(C)cc1	40.4	-4.9
O=C(CSc1nc(O)cc(=O)n1-c1ccccc1)NC1CCCCC1	34.6	-21.0
O=[N+]([O-])c1ccc(-c2cnc(SCc3ccccc3Cl)[nH]2)cc1	44.2	13.2
Fc1ccc2nc(Nc3nc4c(s3)CCCC4)sc2c1	35.3*	126.5*
COc1ccc(-c2cc(=O)c3cc(OC)ccc3[nH]2)cc1	41.4	8.2
CN=C1c2c(-c3ccccc3)c3cc(OC)ccc3n2CCN1C	31.7	0.9
Cc1ccc(S(=O)(=O)N2CCN(c3nc(C(C)C)c4c(c3C#N)CC(C)(C)OC4)CC2)cc1	115.0	-21.1
COc1ccc2cc3cc(C(=O)NCc4cccs4)oc3nc2c1	105.5	-160.5
CN(C)c1ccc(/C=N/NC(=O)c2ccc(Cl)cc2)cc1	31.2	17.2
COCCn1c(N)c(C#N)c2nc3ccccc3nc21	55.4*	158.8*
CN(C)CCNc1ncnc2c1sc1nc(N3CCOCC3)c3c(c12)CC(C)(C)SC3	43.8	-1.8
CCOC(=O)C1CCN(C(=O)c2cnn3c(C)cc(C)nc23)CC1	35.3	5.7
CCN(CC)c1ccc(/C=N/Nc2ccccc2)c(O)c1	38.7	4.4
CCOC(=O)N1CCN(S(=O)(=O)/C=C/c2ccccc2)CC1	63.0	3.0
CC(C)CC(=O)Nc1ccccc1Oc1ccccc1	38.8	-2.7
O=C(NCc1ccc2[nH]c3c(c2c1)CCCC3)N1CCOCC1	85.4	0.1
Nc1nc(OCc2ccccc2)c2[nH]cnc2n1	52.2	-8.2
O=C1CN(c2nnnn2-c2ccccc2)CCN1	55.2	-1.3
Cc1ccc(-n2sc3ccccc3c2=O)cc1S(=O)(=O)N1CCCCC1	31.2	15.1
COC(=O)c1nn(-c2ccc3c(c2)CCN3C(C)=O)cc1O	41.0*	73.6*

Rewritten in markdown: entries from further up.
| compound | RmlC RmlD mix | RmlC RmlD mix retest |
| --- | --- | --- |
| Cc1ccc(S(=O)(=O)N2CCN(c3nc(C(C)C)c4c(c3C#N)CC(C)(C)OC4)CC2)cc1 | 115.0 | -21.1 |
| COc1ccc2cc3cc(C(=O)NCc4cccs4)oc3nc2c1 | 105.5 | -160.5 |
| CN(C)c1ccc(/C=N/NC(=O)c2ccc(Cl)cc2)cc1 | 31.2 | 17.2 |

New compounds follow:
SMILES	RmlC RmlD mix	RmlC RmlD mix retest
O=C(NCCN1CCOCC1)c1c(F)c(F)c(F)c(F)c1F	58.9	1.1
CCOC(=O)c1c(N)n(CCN2CCOCC2)c2nc3ccccc3nc12	40.0	17.1
O=C(c1ccco1)N1CCN(C(=O)C2CCN(S(=O)(=O)Cc3ccccc3)CC2)CC1	36.5	-15.1
Cc1ccccc1-c1coc2cc(O)ccc2c1=O	41.3	19.8
COc1ccc(NC(=O)Cc2ccc(Cl)cc2)cc1NC(=O)c1ccco1	86.0	7.2
CC1CCC(N2CCN(c3ncccn3)CC2)CC1 (stereo not given)	34.5	1.3
COc1ccc(S(=O)(=O)NCCC(C)C)cc1C	44.2	-2.2
COc1ccccc1NC(=O)c1sc2ncn(Cc3ccc(C)cc3)c(=O)c2c1C	36.5	-72.4
COc1ccc2cc3cc(C(=O)NC(C)C)oc3nc2c1	96.4*	.
O=C(COc1cccc(Cl)c1)Nc1nc(-c2ccc(S(=O)(=O)N3CCOCC3)cc2)cs1	33.5	-0.7
CCn1nc(C(=O)OCC(=O)NCCN2C(=O)CSC2=O)c2ccccc2c1=O	116.4	4.9
O=C1CCCN1CCCNc1ncnc2c1cnn2-c1ccc(Cl)cc1	46.2	7.9
COc1ccc(C2(C(=O)Nc3ccc(C(=O)O)cc3)CCOCC2)cc1	34.5	-21.5
O=S(=O)(N/N=C\C=C\c1ccccc1)c1ccccc1	54.0	-5.0
O=C(Cn1nc(Cc2cccnc2)c2ccccc2c1=O)NCC1CCCO1 (stereo not given)	69.2	-6.5
COc1cc(-c2nc3ccccn3c2/N=C/c2ccccc2)ccc1O	67.4*	55.0*
CN(C)C(=O)COC(=O)c1cc(Cl)cc(Cl)c1N	35.9*	80.1*
CCS(=O)(=O)N1CCN(C(=O)C(c2ccccc2)c2ccccc2)CC1	37.4	2.3
CCN1CCN(C(C(=O)NC2CCCCC2)c2ccc(Cl)cc2)CC1 (stereo not given)	i	25.2
CCOC(=O)C1=C(C)NC2=C(C1c1ccc([N+](=O)[O-])cc1)S(=O)(=O)c1ccccc12 (stereo not given)	32.9	-9.1

Compound profiles (already shown).
CC1CCC(N2CCN(c3ncccn3)CC2)CC1 (stereo not given) across the screens: RmlC RmlD mix = 34.5; RmlC RmlD mix retest = 1.3
CCN1CCN(C(C(=O)NC2CCCCC2)c2ccc(Cl)cc2)CC1 (stereo not given) across the screens: RmlC RmlD mix = i; RmlC RmlD mix retest = 25.2
CCn1nc(C(=O)OCC(=O)NCCN2C(=O)CSC2=O)c2ccccc2c1=O across the screens: RmlC RmlD mix = 116.4; RmlC RmlD mix retest = 4.9

The list continues.
SMILES	RmlC RmlD mix	RmlC RmlD mix retest
Cc1cc(C)c(NC(=O)C2CCCN2CCO)c(C)c1 (stereo not given)	107.8	0.6
COc1ccc(-c2nnc(SCc3cccnc3)o2)cc1	105.1	3.4
Cn1c(=O)c2c(nc(Br)n2Cc2ccc3ccccc3c2)n(C)c1=O	79.2	5.6
Nc1nc(Nc2cccc(C(F)(F)F)c2)nc(C(F)(F)F)n1	43.7	-10.9
CC1=C(C(=O)OCC(C)C)[C@]23C(=O)c4ccccc4[C@@]2(O1)OC(N)=C3C#N	102.9	-5.6
N#Cc1nc(-c2cccs2)oc1NCCc1ccccc1	41.5	-97.6
C=CCn1c(=O)c2c(nc(-c3ccc(S(=O)(=O)O)cc3)n2C)n(C)c1=O	37.5	20.7
Cc1cc(C)n(-c2cc(N3CCOCC3)ncn2)n1	33.1	7.1
O=C(NC1CCCCC1)c1ccc(CNc2c(N3CCOCC3)c(=O)c2=O)cc1	64.2	8.7
CCCCn1c(-c2cccs2)nc2nc3ccccc3nc21	55.8	-89.4
CCCCCCc1cc2cc(-c3nnc(-c4cc(OC)c(OC)c(OC)c4)o3)c(=O)oc2cc1O	68.8*	.
COc1cc(C(=O)N/N=C\c2ccccc2)c([N+](=O)[O-])c(OC)c1OC	71.4	-3.1
COc1cc(C)nc(N2CCCC(C(=O)NC3CCC(C)CC3)C2)n1 (stereo not given)	39.2	4.7
CCOc1ccc(C2=CS/C(=C(\C#N)c3nnc4n3CCCCC4)N2CC)cc1	34.5	-2.7
CCOC(=O)c1cc(NC(=O)c2cnccn2)cc(C(=O)OCC)c1	55.4	-5.2
CCOC(=O)CN(C(=O)CSc1nnc(CNc2ccc(F)cc2)n1CC)c1ccc(F)cc1	103.4	3.1
COc1cccc(N2C(=O)CC(c3c[nH]c4ccccc34)C2=O)c1 (stereo not given)	87.8	-0.3
c1ccc(-n2cnnc2SCc2cn3ccsc3n2)cc1	i	1.5
CCOC(=O)Cc1csc(NC(=O)Cc2cccs2)n1	70.9	-15.5
O=C(c1sc2ccccc2c1Cl)N(Cc1cccs1)C1CCS(=O)(=O)C1 (stereo not given)	i	-1.1

Random excerpt: two entries already listed, in no set order.
SMILES	RmlC RmlD mix	RmlC RmlD mix retest
O=C(COc1cccc(Cl)c1)Nc1nc(-c2ccc(S(=O)(=O)N3CCOCC3)cc2)cs1	33.5	-0.7
COc1ccc(-c2cc(=O)c3cc(OC)ccc3[nH]2)cc1	41.4	8.2

(next part)
SMILES	RmlC RmlD mix	RmlC RmlD mix retest
CC(C)(C)NC(=O)CN(C(=O)C1(C)CC(=O)N=C2C=CC=CN21)C1CCCC1 (stereo not given)	39.2*	42.5*
COc1ccc2occ(NC(C)=O)c2c1	40.7	5.4
COc1ccccc1N(CC(=O)NCCSC(C)(C)C)S(C)(=O)=O	90.7	-13.3
CCOc1ccc2c(c1)c1nnc(SCC(=O)N3CCCCC3C)nc1n2C (stereo not given)	53.7	-1.2
c1ccc(CN(Cc2cccs2)C(c2cccs2)c2nnnn2C2CCCC2)cc1 (stereo not given)	53.7	-4.1
O=C(CCN1C(=O)C2CC=C(Cl)CC2C1=O)N1CCCCC1 (stereo not given)	172.1	7.1
CC(NC(=O)c1cccc(C(F)(F)F)c1)C1CCCO1 (stereo not given)	62.4	6.2
CC(C)n1c(NCCc2ccccc2)nc2c1c(=O)n(C)c(=O)n2C	32.4	-0.4
CCOc1ccccc1NC(=O)CCC(=O)O	53.6	-3.6
Cc1nn(-c2ccccc2)c(OC(=O)c2cccs2)c1S(=O)(=O)c1ccccc1	30.7	-0.4
FC(F)(F)c1cccc(-c2noc(CN3CCOCC3)n2)c1	100.7	-14.1
Cc1cc(=O)oc2cc(OC(=O)c3ccccc3)ccc12	46.0*	62.9*
CCOCc1nnc(NC(=O)c2ccc(OC)cc2)s1	33.7	2.2
CCOC(=O)c1sc2nc(N3CCCC3)c3c(c2c1N)CC(C)(C)OC3	45.1*	157.8*
CN(C)S(=O)(=O)N(CC(=O)Nc1ccccc1C(F)(F)F)c1ccccc1	31.3	-1.4
Cc1cccc(-c2nnc(SCc3ccccc3)o2)c1	101.9	5.4
COc1ccc(C(=O)O/N=C(\N)Cc2ccc(Cl)cc2)cc1OC	48.8	-10.5
Cc1ccc(C)c(N2CCN(C(=O)c3ccc(CSc4nc5ccncc5[nH]4)cc3)CC2)c1	105.7	-12.4
C=CCOc1ccc(/C(CC)=N/O)c(OC)c1	105.0	3.3
CCOC(=O)CC(=O)CSc1nc2ccc(C)cc2cc1C#N	+	45.7*
O=C(COC(=O)c1ccc(Br)o1)Nc1nc2ccccc2s1	66.0	-4.5
Cc1[nH]n(-c2ccccc2)c(=O)c1C=Nc1cnc2ccccc2c1	43.9*	86.3*
CCC(Cc1ccccc1)NC(=O)CN1C(=O)CSc2ncccc21 (stereo not given)	79.5	-7.5
COC(=O)c1oc2nc(C)cc(C)c2c1N	43.0	25.8
CCOc1ccc2[nH]c(=O)c(C(c3nnnn3C3CCCCC3)N3CCN(CC)CC3)cc2c1 (stereo not given)	47.8	12.1
CC(C)C(c1nnnn1C1CCCC1)N1CCN(C(=O)c2ccco2)CC1 (stereo not given)	121.4	3.7
CCOC(=O)c1sc(Nc2nc3c(OC)cccc3s2)nc1C	79.1*	.
COc1ccc2cc3cc(C(=O)NCCCN4CCOCC4)oc3nc2c1	43.2*	119.9*
CC1=C(C(=O)Nc2ccc(Cl)cc2)C(c2ccco2)NC(=O)N1 (stereo not given)	33.8	-12.6
O=C1Cc2ccccc2N1c1ccccc1	43.9	1.6
COc1ccc(N2CCN(S(=O)(=O)c3cccs3)CC2)cc1	105.1	-4.9
CCOC(=O)c1c(C)n(C)c2ccc(O)c(CN(CC)CC)c12	55.7	0.3
O=C(c1cc(S(=O)(=O)N2CCCCC2)ccc1F)N1CCCCC1	79.1	-7.1
CC1(c2ccccc2)CC2CC(c3ccccc3)N1O2 (stereo not given)	115.2	-16.0
COc1cccc(CN(CC(=O)NC2CCCC2)C(=O)Cn2nnc(-c3cccs3)n2)c1	104.1	0.9
N#CCCN(CCC#N)c1nnc(-c2ccccc2)s1	58.1	4.0
COc1ccc(CNC(=O)C(c2ccco2)N(Cc2ccccc2)C(=O)Cc2cccs2)cc1 (stereo not given)	66.0	-8.6
O=C(CSc1nnc(NC(=O)c2ccco2)s1)NC1CCCCC1	61.6	9.3
Cc1noc(C)c1CN1C(=O)NC2(CCc3ccccc3C2)C1=O (stereo not given)	166.1	9.8
COC(=O)c1nc(-c2ccccc2)oc1N(C)C	80.6	17.9
COc1ccc(S(=O)(=O)Nc2ccc(S(=O)(=O)Nc3nc(C)cc(C)n3)cc2)cc1OC	32.7	13.5
CCN1CCN(c2nc3ccccc3nc2C(C#N)C(=O)OCc2ccccc2)CC1 (stereo not given)	125.9	2.2
COC(=O)CC1=C(C(=O)OC)C(c2cccc(OCC(N)=O)c2)C(C#N)=C(N)O1 (stereo not given)	37.5	-4.8
COc1ccc(-c2cc(C(F)(F)F)nc(SCCC(=O)N3CCOCC3)n2)cc1	68.4	-3.9
CCOc1ccc(-c2nnc(SCC(=O)N(CC)CC)n2N)cc1	58.7	-9.8
Nc1ccc(-c2nc3c(Cl)c(N)ccc3[nH]2)cc1	116.0*	145.7*
CCOc1ccc(N/C(SC)=C(/C#N)C(N)=O)cc1	147.9	10.5

Compound activity (PubChem)

These rows are one share of the data, so the mix of outcomes need not match the whole.
